Screening data (PubChem)
B2AR ag: human beta-2 adrenergic receptor agonism by FAP. P07550. Am2.2-beta2AR cells, FAP receptor internalization, flow cytometry; reference of the scale not given here. response, % (concentration not given with the values). 340,000 compounds, 0.43% hits. AID 504454;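 active = response above a set limit, near 3 SD of response in nonfluorescent compounds, cut at about 42% in these data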;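 note: stock transfer was 100 nL into about 11 µL; a reference agonist was the positive control; negative values mostly stem from fluorescent compounds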
Target sequence (P07550 whole entry, looked up): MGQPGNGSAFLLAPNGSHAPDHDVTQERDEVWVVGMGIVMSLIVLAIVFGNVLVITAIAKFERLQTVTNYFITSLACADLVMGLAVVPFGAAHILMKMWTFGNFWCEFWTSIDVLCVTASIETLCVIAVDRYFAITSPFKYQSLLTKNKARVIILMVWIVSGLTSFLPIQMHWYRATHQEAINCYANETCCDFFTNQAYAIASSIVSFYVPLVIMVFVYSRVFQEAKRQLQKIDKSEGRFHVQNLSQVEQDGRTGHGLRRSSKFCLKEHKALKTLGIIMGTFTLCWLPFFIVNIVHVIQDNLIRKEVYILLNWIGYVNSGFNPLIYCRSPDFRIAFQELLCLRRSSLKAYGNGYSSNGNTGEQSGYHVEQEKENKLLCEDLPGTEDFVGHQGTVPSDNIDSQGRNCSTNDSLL
LANA-H2A inh: blocks KSHV LANA binding to histone H2A/H2B; 320,000 compounds, 0.6% hits; Q9QR71; AID 2629; cell-free LANA-H2A/H2B peptide, fluorescence polarization; inhibition, % (concentration not given with the values); in the data active = inhibition mostly above about 10%, no sharp cut-off; inactive = mostly below about 6.7%;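 note: stock transfer was 7.5 nL into about 10 µL; 0% = median of vehicle wells and 100% = median of positive control wells; one replicate is shown; the record names a cut of 25% in any replicate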
RanGTP-Impb inh: inhibitors of RanGTP-importin-beta interaction, primary screen, biochemical, FRET, CFP-Ran, YFP-importin-beta, homogeneous. inhibition, % (concentration not given with the values). 300,000 compounds, 1.1% hits. cell-free CFP-Ran/YFP-importin-beta FRET ratio;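 active = most replicates above 15%; inconclusive = exactly half above 15%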;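 note: 0% = DMSO wells and 100% = Ran loaded with GDP instead of GTP; wells of about 40 µL received 100 nL stock; the first replicate is given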
Vif TR-FRET: HIV-1 Vif–A3G interaction blockers – biochemical, TR-FRET, GST-Vif 1-94, biotin-A3G peptide, dose response retest, primary screen (AID 1117319); inhibition, %, or IC50 in µM where a hit was titrated; TR-FRET GST-Vif / biotin-A3G peptide binding; higher % means a stronger effect; test concentration not given here; strong numbers were not always called active; 260,000 compounds, 0.57% hits;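 active = above the screen mean plus three standard deviations and confirmed in dose response; inconclusive = results disagree or hit not tested in dose response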;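 note: Vif residues 1-94 fused to GST binding biotinylated APOBEC3G peptide 110-148; 0% = full assay without inhibitor and 100% = GST in place of GST-Vif; retest series ran down from 100 µM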
HNF4A DNA FP: change in binding of human HNF4 alpha to DNA. P41235. HNF4a-FITC DNA binding, fluorescence polarization, 1 h. activity change, % at 10 µM. 360,000 compounds, 0.3% hits. AID 1224865; in the data active = activity change above about 30%, passing the limit was not always enough;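 note: controls were the assay level and a saturating level of protein; the project sought stronger binding though the title names inhibitors; some compounds called inactive have numbers as strong as hits; positive values seem to mean higher polarization but the record does not say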
Target sequence (P41235 whole entry, looked up): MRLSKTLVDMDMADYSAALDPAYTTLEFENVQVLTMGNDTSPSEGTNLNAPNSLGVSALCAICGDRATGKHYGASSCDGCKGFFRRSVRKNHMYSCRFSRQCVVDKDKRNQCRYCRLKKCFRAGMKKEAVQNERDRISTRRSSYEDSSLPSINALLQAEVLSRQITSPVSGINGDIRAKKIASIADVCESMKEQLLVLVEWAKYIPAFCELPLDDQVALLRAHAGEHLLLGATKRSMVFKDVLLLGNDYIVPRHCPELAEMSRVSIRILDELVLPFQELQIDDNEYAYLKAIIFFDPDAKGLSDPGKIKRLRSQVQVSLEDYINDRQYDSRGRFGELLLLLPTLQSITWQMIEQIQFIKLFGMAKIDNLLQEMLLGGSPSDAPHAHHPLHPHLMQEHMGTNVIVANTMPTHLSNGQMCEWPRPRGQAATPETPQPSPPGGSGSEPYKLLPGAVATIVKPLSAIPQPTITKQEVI
ALR H2O2 inh: blocks human ALR sulfhydryl oxidase activity; P55789; purified ALR, DTT oxidation, H2O2 HRP-luminol luminescence; inhibition, % (concentration not given with the values); 290,000 compounds, 3.8% hits;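 active = mean and each replicate at 75% or more; inconclusive = only one of the two met; inactive = neither met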;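 note: stock transfer was 7.5 nL into about 7.5 µL; 0% = neutral wells and 100% = wells with inactivated enzyme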
Target sequence (P55789 whole entry, looked up): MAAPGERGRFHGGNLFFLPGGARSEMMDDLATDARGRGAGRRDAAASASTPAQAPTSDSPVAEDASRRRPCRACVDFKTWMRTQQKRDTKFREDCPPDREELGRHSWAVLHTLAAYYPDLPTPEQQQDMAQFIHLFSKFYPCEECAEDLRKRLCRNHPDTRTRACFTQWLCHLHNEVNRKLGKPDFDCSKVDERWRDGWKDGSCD
Calb FLC: C. albicans growth modulation with fluconazole | C. albicans CaCi-2 (fluconazole-resistant clinical isolate) + fluconazole, Alamar Blue growth, 48 h | 300,000 compounds, 0.57% hits | growth inhibition, % (concentration not given with the values);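 active = most replicates above 75%; inconclusive = exactly half above 75%; inactive = most below 75%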;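 note: all wells also contain fluconazole at 8 µg/ml as a sub-toxic cotreatment; 0% = median of DMSO wells and 100% = median of geldanamycin control wells; wells of about 8 µL received 7.5 nL stock; the first replicate is given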
Active calls of the source: *; ? = inconclusive; · = no result given.

SMILES	B2AR ag	LANA-H2A inh	RanGTP-Impb inh	Vif TR-FRET	HNF4A DNA FP	ALR H2O2 inh	Calb FLC
CCN(CC)C(=O)CSc1ncnc2sccc12	1	1.5	-0.5	6%	1.9	3	1
COc1cc(C(=O)Nc2ccc(C)cc2)c2ccccc2n1	16	-1.3	-4.5	3%	1.1	1	-2
O=P1(NC2CCCC2)OCC2(CO1)COP(=O)(NC1CCCC1)OC2 (stereo not given)	1	·	·	-7%	5.8	·	·
COc1cc2c(=O)n(CCC(=O)NCC3CCCO3)c(=O)n(CC(=O)Nc3ccccc3C)c2cc1OC (stereo not given)	1	-0.8	5.4	·	-0.4	-1	-5
COc1ccccc1C(c1nnnn1Cc1ccccc1)N1CCC(C(N)=O)CC1 (stereo not given)	12	1.6	4.0	3%	0.0	-14	-6
CCN(Cc1cc(=O)n2ccsc2n1)Cc1nc2ccccc2c(=O)[nH]1	-2	-1.4	5.3	12%	1.9	-2	-2
C[C@H](CO)N1C[C@H](C)[C@H](CN(C)C(=O)Nc2cccc3ccccc23)Oc2c(NC(=O)c3ccc(-c4nccs4)cc3)cccc2C1=O	-5	1.5	·	·	0.5	-8	·
CS(=O)(=O)N1CCN(C(=O)COc2ccccc2)CC1	0	0.2	-3.2	·	-1.6	·	3
Cc1ccccc1NC(=O)CCN1CCN(C/C=C/c2ccccc2)CC1	0	0.9	-3.8	-4%	0.1	8	-10
COc1cc(OC)c(NS(=O)(=O)c2cc(C(=O)OCC(=O)NCC3CCCO3)ccc2OC)cc1Cl (stereo not given)	0	4.7	-3.3	4%	0.0	-21	-11
O=C(NCCCN1CCCC1=O)Nc1ccc(Br)cc1Cl	3	-2.3	-2.3	3%	8.6	-8	3
COc1ccc(/C(O)=C2\C(=O)C(=O)N(CCN(C)C)C2c2cc(OC)c(OC)c(OC)c2)c(C)c1 (stereo not given)	8	-3.7	4.8	-6%	2.3	1	15
Cc1ccc(OS(=O)(=O)c2ccccc2)c(/C=N/N=C2\NC(=O)C(C)S2)c1 (stereo not given)	-3	-4.7	·	20%	-0.7	10	·
CCCc1cc(=O)oc2c(CN3CCN(C)CC3)c(O)c(Cl)cc12	-3	-0.4	50*	-6%	1.4	·	-1
CCc1cc(C(=O)Cc2ccccn2)c(O)cc1O	12	-2.8	3.0	·	-3.0	0	10
O=c1cc(CO)occ1OCc1cccc(C(F)(F)F)c1	2	3.7	-1.3	-6%	-2.0	-2	3
COC(=O)c1c(C)[nH]c(C(=O)COC(=O)Cc2ccc3c(c2)OCCO3)c1C	13	-0.3	-1.1	11%	0.9	8	-2
Cc1ccc(NS(=O)(=O)c2ccc(C)c(NC(=O)COc3ccccc3)c2)c(C)c1	-1	-1.3	-3.9	-2%	6.9	-6	7
O=C(C1CCN(Cc2ccccc2O)CC1)N1CCN(Cc2ccc3c(c2)OCO3)CC1	-2	3.6	0.7	0%	1.3	8	-14
Cc1cc(OCC(=O)NC(C)C)cc(C)c1Br	-5	·	-3.0	1%	-1.6	·	5
Cc1onc(-c2c(F)cccc2Cl)c1C(=O)OCC(=O)c1c(N)n(C)c(=O)n(C)c1=O	6	-2.3	0.5	1%	0.9	17	3
CCCS(=O)(=O)N1CCN(Cc2ccncc2)CC1	1	-0.6	-4.1	0%	5.4	1	-4
Cc1ccc(/C=N/NC(=O)c2ccc(NC(=O)c3ccc(Cl)cc3)cc2)o1	-5	-6.6	5.3	·	0.4	-1	-7
O=C(COC(=O)c1ccc(NS(=O)(=O)c2cccs2)cc1O)NCc1ccccc1	5	1.4	-2.2	?	2.1	6	-9
CC1(C)Cc2ccccc2-c2nnnn21	-9	-6.8	0.8	-3%	-4.2	-3	-11

The list goes on:
SMILES	B2AR ag	LANA-H2A inh	RanGTP-Impb inh	Vif TR-FRET	HNF4A DNA FP	ALR H2O2 inh	Calb FLC
Cc1ccc(-c2csc3nc[nH]c(=O)c23)cc1C	-8	-1.0	1.7	·	-1.1	16	26
Cc1ccsc1C(C(=O)NC1CCCCC1)N(C(=O)Cc1cccs1)C1CC1 (stereo not given)	-1	-7.1	?	19%	-0.6	3	-18
N#C/C(=C\c1ccc(Cl)cc1)c1nc2ccccc2o1	1	-0.1	?	3%	-3.2	4	-8
COc1ccccc1CN1CCNC(=O)C1CC(=O)NCc1cn(C)nc1C (stereo not given)	3	-4.7	2.9	1%	1.1	-31	0
COc1cccc(CN2CC(C(=O)N(C)Cc3nc4ccc(F)cc4[nH]3)CCC2=O)c1 (stereo not given)	-4	·	4.2	·	1.0	-8	-4
CN(C)CCNC(=O)Cn1nc(-c2ccc(Cl)cc2)ccc1=O	-16	-1.0	-2.8	-1%	-1.9	-1	-7
CN(CCCC(=O)NCc1ccc2c(c1)OCO2)S(=O)(=O)c1ccc([N+](=O)[O-])cc1	-9	-0.1	-1.2	10%	1.8	-42	-5
CC(C)NC(=O)c1ccc2c3n(nc2c1)-c1ccc(Cl)cc1CO3	-6	-3.3	-1.3	9%	1.2	-4	-10
O=C(NCc1ccccc1)C(=O)NCC(c1ccco1)N1CCN(c2ccccc2F)CC1 (stereo not given)	-3	-8.4	3.2	·	0.5	-5	7
CC1CCCN(C(=O)C2CCN(S(=O)(=O)c3cccc4nsnc34)CC2)C1 (stereo not given)	1	2.5	0.6	·	5.0	-5	-9
CCC(C)(C(=O)NC1CCCCC1)N(Cc1cccs1)C(=O)c1ccccn1 (stereo not given)	-2	-1.9	7.5	2%	-1.3	-42	-2
O=C(NCc1cccs1)c1ccc(S(=O)(=O)N2CCOCC2)cc1	3	-3.4	0.4	·	-3.3	-15	-7
COCCCNc1nc2nonc2nc1N1CCN(Cc2cccc(C)c2)CC1	5	-1.6	-0.1	-4%	-2.3	·	-4
COc1ccc(OCCn2cc(/C=N/NC(=O)c3ccncc3)c3ccccc32)cc1	2	-6.1	-2.4	·	0.8	-2	-10
O=C1CCCC2=C1C(c1ccco1)Nc1ccc(C(=O)c3ccccc3)cc1N2 (stereo not given)	-3	-2.2	?	?	4.0	2	13
COc1ccc(CN2CCNC(=O)C2CC(=O)NC2CC(C)(C)CC(C)(C)C2)cc1OC (stereo not given)	-1	-2.8	3.6	·	-0.2	-3	4
Cc1cc(N2CCC(C(=O)NC3CC3)CC2)nc(-c2ccccc2)n1	-3	-6.3	2.6	-5%	0.7	-15	·
Cc1ccc(S(=O)(=O)/N=C2/NC(=O)/C(=C/c3cc([N+](=O)[O-])ccc3O)S2)cc1	0	-1.6	-68	·	25	29	6
CCCn1nnc(NC(=O)c2cccc(Cl)c2)n1	-11	1.4	3.4	-8%	-0.1	-29	-7
CCCNC(=O)C(Cc1ccc(F)cc1)NC(=O)c1ccc(C#N)cc1 (stereo not given)	3	-1.1	·	·	-1.9	-1	·
CCOC(=O)C(C)c1c(C(=O)c2ccc(C)nc2)c2ccccc2n1C (stereo not given)	·	-3.3	-1.3	·	·	-1	21
CCCCn1c(N)c(N(CC(C)C)C(=O)C2CSC3(C)CCC(=O)N23)c(=O)[nH]c1=O (stereo not given)	-6	-9.4	-0.9	-5%	-2.0	-1	3
COc1ccc(F)cc1S(=O)(=O)NCC1CCCO1 (stereo not given)	-3	-1.0	-3.5	3%	1.5	-11	0
COc1ccc(/C=N/NC(=O)c2ccoc2C)cc1COc1c(C)cccc1C	7	-3.1	4.9	-4%	-1.8	-7	18
COc1cc(C=O)ccc1OCC(=O)N1CCCC1	4	0.0	3.3	1%	-2.7	-4	1

Record cards, as listed above:
COc1cccc(CN2CC(C(=O)N(C)Cc3nc4ccc(F)cc4[nH]3)CCC2=O)c1 (stereo not given) as listed: B2AR ag = -4; LANA-H2A inh = ·; RanGTP-Impb inh = 4.2; Vif TR-FRET = ·; HNF4A DNA FP = 1.0; ALR H2O2 inh = -8; Calb FLC = -4
COc1ccc(OCCn2cc(/C=N/NC(=O)c3ccncc3)c3ccccc32)cc1 as listed: B2AR ag = 2; LANA-H2A inh = -6.1; RanGTP-Impb inh = -2.4; Vif TR-FRET = ·; HNF4A DNA FP = 0.8; ALR H2O2 inh = -2; Calb FLC = -10

(listing goes on)
SMILES	B2AR ag	LANA-H2A inh	RanGTP-Impb inh	Vif TR-FRET	HNF4A DNA FP	ALR H2O2 inh	Calb FLC
CCOC(=O)CSC1=C(C#N)C(c2ccccc2OCC)C(C#N)C(=O)N1 (stereo not given)	6	-1.6	10	-2%	8.0	19	-15
CN(C)c1ccc(/C=C/C(=O)c2cc(Cl)ccc2O)cc1	-96	1.4	-49	2%	75*	5	-7
CCCn1nnnc1SCC(=O)c1ccc(NC(C)=O)cc1	-16	1.6	4.7	22%	-0.5	24	-8
Fc1cc(F)cc(-c2oncc2-c2nnnn2-c2ccccc2)c1	-3	-3.3	-3.3	-6%	-1.2	·	-17
CCc1ccc(OCC(O)Cn2c(N3CCCCC3)nc3c2c(=O)[nH]c(=O)n3C)cc1 (stereo not given)	-4	3.8	0.2	·	-5.7	-5	-4
CCOCCCNC(=O)c1ccc2c(c1)N(Cc1ccccc1)C(=O)CS2=O (stereo not given)	5	-3.5	0.8	-1%	1.6	-10	1
COc1ccc(NC(=O)[C@@H](NC(=O)c2ccccc2)C(C)C)cc1S(=O)(=O)N1CCCCC1	5	-3.7	-2.4	·	0.4	-8	-4
CC(NCCC(Cc1ccccc1)c1ccco1)c1ccccc1 (stereo not given)	13	4.6	2.0	7%	-4.6	-13	-2
CC1CCN(c2nc3ccc(C(=O)NCCCN4CCCCC4C)cc3s2)CC1 (stereo not given)	12	-1.5	4.0	·	5.8	6	10
COc1ccc(C2=NOC(CNC(=S)N3CCOCC3)C2)cc1 (stereo not given)	-9	2.8	1.8	18%	-0.8	34	-7
CCOC(=O)N1CCN(Cc2oc(CO)cc(=O)c2O)CC1	-1	-1.9	1.6	1%	-4.8	10	2
N#Cc1nc(-c2ccc(OCc3ccc(Cl)cc3)cc2)oc1NCCCn1ccnc1	-2	-3.8	1.8	-2%	-1.3	-2	·
C/C(=N\NC(=O)c1cccc(C)c1O)c1ccc(NC(=O)Cc2ccccc2)cc1	0	0.7	-1.2	·	-0.4	17	-10
Cc1ccc(OCC(=O)NNC(=S)NC(=O)C(C)(C)C)c(Br)c1	-1	-5.0	-1.9	0%	0.4	-15	7
CCN=C1Cn2c(nc3scc(-c4ccccc4)c3c2=O)CN1CC	2	4.8	·	3%	11	3	·
CN1C[C@@H]2C(c3ccccc3)C3(c4cccnc4)CC2(C3)[C@H]1c1ccccc1 (stereo not given in full)	4	2.6	-2.2	·	-0.9	·	21
COc1cccc(-c2nc(CS(=O)(=O)CC(=O)NCCCN3CCOCC3)c(C)o2)c1	2	1.4	-0.3	·	1.2	99*	4
Cc1ccc(N(C)S(=O)(=O)c2cccc(C(=O)NC3=NCCS3)c2)cc1	-4	0.2	3.5	16%	5.1	16	-2
COc1ccc(CCn2c3c(c(=O)[nH]c2=O)C(NC(=O)c2cccs2)(C(F)(F)F)C(=O)N3)cc1OC (stereo not given)	-1	5.0	2.2	1%	-2.3	-1	-27
COCC1CCN(Cc2cn[nH]c2-c2ccc(OC)cc2F)C1 (stereo not given)	1	2.6	-0.3	-7%	2.4	-2	-8
CCC(=O)N(Cc1cc(=O)[nH]c2ccccc12)c1ccc(C)cc1	-2	1.7	4.3	-4%	1.3	-6	9
CC(=O)N1CCN(C(=O)c2ccc(OC3CCN(CCc4ccccc4)CC3)cc2)CC1	-14	-0.4	2.4	·	3.4	1	0
O=C1NC(=O)C2C1C(c1ccccc1)N1C3C(=O)NC(=O)C3C(c3ccccc3)N21 (stereo not given)	-3	1.7	6.8	26%	2.0	-2	6
Cc1cc(Cl)c2oc(C(=O)N3CCC(O)(c4ccccc4)CC3)c(C)c2c1	7	3.2	-1.6	·	0.4	-1	25

Rows are unselected. Share with any hit: about 6.3%.
